Compound activity deposited in PubChem by several laboratories.
Yeast UUG start: modulators of start codon recognition fidelity in yeast; S. cerevisiae UUG-firefly luciferase reporter, luminescence/redox ratio; activity score, % at 18.7 µM; 0.13% of 350,000 active; AID 602363;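 active = replicate mean at a twofold rise or more, about +100% in these data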;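 also: firefly luciferase made from a UUG start codon reports start codon fidelity; reporter light over untreated wells divided by growth signal over untreated wells; some hits fall short of that in this replicate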
MT1-MMP act inh: MT1-MMP (human) activation inhibition; HT1080 RFP-PRO-GFP cells, GFP/RFP ratio fluorescence, overnight; percent of plate control window, DMSO zero; GFP/RFP ratio change, % at 20 µM; 0.061% of 360,000 active;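 active = GFP/RFP ratio change of at least 30% with cell ATP level not reduced by more than half and red fluorescence within 50% of control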; also: strong numbers were not always called active
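Material – HT1080 RFP-PRO-GFP cells · Control set – DMSO wells and RFP-L50D-GFP cells · Incubation – overnight cell settling, then overnight compound exposure, 37 °C, 5% CO2 · Compound dosing – single-point 20 µM compound, 1% DMSO · Read-out – GFP/RFP fluorescence ratio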
CSC inhib: blocks cancer stem cells | cancer stem cell-like cells viability, luminescence | inhibition, % at 7.5 µM | 1.1% of 300,000 active | AID 2717;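 active = mean at 75% or more and at least half the replicates too; inconclusive = mean and replicates disagree; tested in HMLE shEcad cells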;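 also: 0% = median of negative and 100% = median of positive control wells; the first replicate is given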
Env fusion inh: blocks HIV Env-driven cell-cell fusion; HeLa-JRFL Env/CEM21 cell fusion, luciferase; inhibition, % at 12.3 µM; 1.1% of 360,000 active;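 active = mean replicate inhibition score of at least 50 and every replicate individually at or above 50; inconclusive = only one of the two criteria met; inactive = mean below 50 and not all replicates reaching 50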;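 also: 0% = plate neutral controls and 100% = maraviroc near 300 nM; one replicate is shown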
eIF4H inh: inhibitors of RNA binding by human eIF4H | 0.94% of 290,000 active | eIF4H fluorescence polarization binding assay | inhibition, % at 35 µM | AID 2012 | Q15056;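 active = 50% or more with normal probe brightness, or confirmed in later tests; inconclusive = above 50% with abnormal brightness, or retests that disagree; inactive = below 50% or failed in later tests; about a fifth of its hits are not listed in these tables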;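 also: calls also rest on retests at 20 µM and on dose response follow-up; 0% = protein and probe with vehicle and 100% = probe without protein; strong numbers were not always called active; many hits fall short of the cut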
PABP FP inh: PABP-poly(A) binding inhibition | AID 2014 | 1% of 290,000 active | P11940 | inhibition, % at 35 µM | PABP-poly(A) RNA binding, fluorescence polarization;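 active = 50% or more with normal probe brightness, or confirmed in later tests; inconclusive = above 50% with abnormal brightness, or retests that disagree; inactive = below 50% or failed in later tests; about a fifth of its hits are not listed in these tables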;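 also: calls also rest on retests at 20 µM and on dose response follow-up; controls were probe without protein and protein plus probe with vehicle; some compounds called inactive have numbers as strong as hits; many hits fall short of the cut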
Target sequence (P11940 whole entry, looked up): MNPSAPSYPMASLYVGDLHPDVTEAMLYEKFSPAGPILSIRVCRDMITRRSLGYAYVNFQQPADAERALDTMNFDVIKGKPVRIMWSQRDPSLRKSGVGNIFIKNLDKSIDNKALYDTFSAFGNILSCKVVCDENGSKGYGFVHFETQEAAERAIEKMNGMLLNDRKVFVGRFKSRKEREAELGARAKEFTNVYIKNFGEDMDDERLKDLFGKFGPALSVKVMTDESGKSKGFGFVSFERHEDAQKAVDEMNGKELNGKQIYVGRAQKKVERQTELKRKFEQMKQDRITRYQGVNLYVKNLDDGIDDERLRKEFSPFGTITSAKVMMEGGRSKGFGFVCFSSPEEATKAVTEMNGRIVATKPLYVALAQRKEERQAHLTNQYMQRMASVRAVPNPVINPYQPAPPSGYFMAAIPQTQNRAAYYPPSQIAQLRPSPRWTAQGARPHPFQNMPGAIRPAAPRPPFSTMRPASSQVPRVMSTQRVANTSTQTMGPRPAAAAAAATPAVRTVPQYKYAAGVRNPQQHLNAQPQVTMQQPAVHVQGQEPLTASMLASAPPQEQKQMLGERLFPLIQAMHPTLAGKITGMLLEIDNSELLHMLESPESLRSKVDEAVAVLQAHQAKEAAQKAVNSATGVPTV
Rce1 inh: blocks yeast Ras-converting enzyme; Q03530; yeast membranes, quenched prenylated peptide cleavage fluorescence; calls only; 0.27% of 290,000 active; AID 2563;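 active = fall in fluorescence gain of 50% or more versus controls, with final raw signal at or below 3038400; inconclusive = same 50% fall but final raw signal above 3038400; inactive = fall in fluorescence gain under 50%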;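 also: plate controls were neutral control wells for no effect and wells lacking membranes for full effect; tested at 10 µM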
Target sequence (Q03530 whole entry, looked up): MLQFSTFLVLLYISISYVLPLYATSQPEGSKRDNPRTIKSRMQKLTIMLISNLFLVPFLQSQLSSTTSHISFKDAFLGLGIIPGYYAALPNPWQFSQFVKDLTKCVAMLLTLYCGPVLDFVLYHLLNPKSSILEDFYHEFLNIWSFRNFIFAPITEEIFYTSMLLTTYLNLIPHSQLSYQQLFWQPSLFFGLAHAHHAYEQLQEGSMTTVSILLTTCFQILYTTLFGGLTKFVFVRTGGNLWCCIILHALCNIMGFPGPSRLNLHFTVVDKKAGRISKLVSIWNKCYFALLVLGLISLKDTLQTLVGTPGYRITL
eIF4H inh retest: second read-out of eIF4H inh, no call of its own (marks repeat the call); inhibition, %; compound at 20 µM; confirmation average;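 mean of two retest wells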
PABP FP inh retest: also measured in PABP FP inh; calls as there; inhibition, %; compound at 20 µM; confirmation repeats;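 mean of two retest wells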
MT1-MMP act inh RFP: recorded beside MT1-MMP act inh, whose call it bears; RFP signal change, %; measured here: RFP expression control read;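 0 = vehicle wells; hits needed this value within 50% of zero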
An asterisk follows results filed as active; i = inactive; ? = inconclusive; / = not tested or not shown.

SMILES	Yeast UUG start	MT1-MMP act inh	MT1-MMP act inh RFP	CSC inhib	Env fusion inh	eIF4H inh	PABP FP inh	Rce1 inh	others
CC(NC(=O)c1ccc2c(c1)OCO2)C1CCCO1 (stereo unspecified)	-23.2	2.1	3.4	-8.7	/	-4.9	6.8	i
CCOc1ccccc1NS(=O)(=O)c1ccc2c(c1)n(C)c(=O)c(=O)n2C	-6.9	2.8	2.9	/	0.4	3.8	19.6	i
COc1ccc(NC(=O)/C(C#N)=C\c2ccc(-c3cccc(C(=O)O)c3C)o2)cc1	-6.7	-2.6	-4.2	-3.4	1.7	38.8	32.4	i
Cc1ccc2cccc(NC(=S)NC(=O)c3c(Br)cnn3C)c2n1	-20.5	-5.2	7.5	/	i	25.2	-11.0	i
C/C=C/c1ccc(OCC(=O)Nc2ccc(C(N)=O)cc2)c(OC)c1	/	0.0	1.4	50.8	9.6	1.3	-4.9	i
Cc1cc(C)c2c3c(sc2n1)C(c1cccc(F)c1)C(C#N)=C(N)O3 (stereo unspecified)	15.0	-11.9	-1.9	27.6	-32.3	110.4	119.0	/	eIF4H inh retest=-1.9;PABP FP inh retest=1.0
Cc1cc(NC(=O)C2(C)CCN2C(C)C)c2ccccc2n1 (stereo unspecified)	3.2	-2.2	3.9	/	13.4	/	/	/
COc1ccc(OC)c(CNc2ncc(-c3cccc([N+](=O)[O-])c3)n2C)c1	-3.7	0.1	0.2	-5.5	-6.6	9.7	-1.0	i
CCOC(=O)c1[nH]c2ccccc2c1NC(=O)c1ccco1	-24.7	2.9	11.0	-11.1	-48.0	-1.2	0.9	i
COc1ccccc1OCc1nc2ccccc2n1C	-14.5	2.7	4.8	-6.6	-17.1	-5.9	-0.4	i
CCCN1C(=O)C(O)(c2c(C)[nH]c3ccccc23)c2ccccc21 (stereo unspecified)	-13.9	-2.8	-0.6	-2.6	18.6	5.5	-3.8	i
Cc1cc(C(=O)NNC(=S)NC(C)c2ccccc2)c2ccccc2n1 (stereo unspecified)	-42.0	1.1	3.2	7.3	/	15.9	-0.1	i
CCc1cc2c(SCC(=O)C(C#N)=C3N(C)c4ccccc4N3C)ncnc2s1	-13.4	1.0	0.4	-12.3	/	4.9	-5.2	i
Cc1ccc(CNc2nnnn2C)cc1	-7.3	2.1	2.1	-2.5	6.1	-13.2	18.0	i
Cc1c(C(=O)NNC(=S)Nc2cccc(Cl)c2)nnn1-c1ccccc1	/	-2.1	4.4	5.9	-64.1	12.2	-6.9	i
COc1ccc(CN2CN(c3ccc(Cl)cc3)C(=O)N(n3cnnc3)C2)cc1	-9.9	1.6	1.6	-7.0	14.5	4.0	-6.9	i
CCN(C1CCCCC1)S(=O)(=O)c1cn(C)c(=O)n(C)c1=O	-14.5	-0.9	0.6	5.5	14.4	3.0	1.0	i
COCCNC(=O)CN(C(=O)c1ccc(N2CCCC2)nc1)c1ccc(F)c(Cl)c1	-2.3	3.9	1.0	2.9	5.4	-15.9	-3.1	i
Cc1ccc(S(=O)(=O)/C(=C\N(C)C)c2cnc(Cl)s2)cc1	-18.6	-3.3	-4.6	2.7	-8.5	-13.1	6.8	i
O=C(O)C1CCN(S(=O)(=O)c2ccc(Cl)s2)CC1	-10.2	-4.3	-0.4	-9.7	1.5	/	/	/
O=C(CN1CCC(NC(=O)Nc2ccccc2)CC1)Nc1cccc([N+](=O)[O-])c1	-9.3	5.0	-0.3	-4.4	-3.7	-3.5	0.5	i
O=C(CCC(=O)OCC(=O)c1ccc(Br)cc1)NC1CCCCC1	-2.2	-4.1	-2.0	-14.8	-38.4	-0.9	-7.4	i
O=C(NNS(=O)(=O)c1ccccc1[N+](=O)[O-])c1cc2ccccc2cc1O	-7.3	-1.3	-1.4	-1.6	14.8	0.0	-7.1	i
Cc1cc(-c2[nH]nc3c2C(c2ccc(Cl)cc2)C(C#N)=C(N)O3)c(C)s1 (stereo unspecified)	0.2	-2.7	-2.0	-13.6	-38.5	9.3	2.0	i
O[C@H]1C[C@H](c2ccccc2)N(Cc2cccs2)C[C@@H]1n1cc(C2CC2)nn1	-12.8	-1.8	-3.0	/	-31.6	/	/	/
COc1cc(Cl)c(NS(=O)(=O)c2cc3[nH]c(=O)c(=O)[nH]c3cc2C)c(OC)c1	-12.0	-0.4	3.9	9.7	-28.6	-6.7	-5.1	i
O=C(Nc1cc2c(cc1Cl)OCCCO2)c1ccccc1	-1.5	3.2	6.1	8.4	/	5.1	4.4	i
CCOC(=O)C1(CCC(=O)OCc2ccccc2)CCCCC1=O (stereo unspecified)	-10.6	-3.0	1.5	/	-5.8	/	/	/
Cc1cccc(C)c1OCc1cc(C(=O)NC2CCC(O)CC2)no1 (stereo unspecified)	-30.1	0.8	-2.2	-5.1	-13.2	-4.1	9.1	i
CCOc1ccc(NC(=O)CSc2nnc(-c3ccco3)n2C)cc1	4.2	1.3	5.0	-1.4	/	-3.9	3.0	i
COc1ccc(N2CCN(c3ncnc4nc[nH]c34)CC2)cc1	-5.4	-0.2	-6.9	-0.4	-22.4	-4.8	-2.4	i
COc1ccc(C(=O)OCCN2CCCCC2)cc1	-23.7	5.9	9.1	13.3	-8.4	-6.0	-3.1	i
COc1ccc(-n2c(C)nc3cc(C(=O)NCc4ccco4)ccc32)cc1	-4.1	5.8	1.5	-6.6	/	2.8	9.4	i
CCOCCCNCc1c(Cl)cccc1Cl	/	6.1	9.0	13.5	-0.2	0.2	-7.2	i
CC(C)Cc1cc(C(=O)N2CCN(C(c3ccccc3)c3ccccc3)CC2)no1	-5.6	-1.6	-1.5	33.6	21.7	1.1	-10.1	i
Cc1ccc(NC(=S)N/N=C2\CCCCC2C)cc1 (stereo unspecified)	/	1.0	0.2	4.7	6.3	-7.7	-3.6	i
Cc1ccc(S(=O)(=O)n2ccc(=O)[nH]2)cc1	-11.4	2.7	6.2	4.8	0.0	-0.9	-1.6	i
O=C1N[C@@H](c2ccccc2)COC(=O)[C@@H](Cc2ccc(F)cc2)CC/C=C/C[C@@H]1CC(=O)N(CCO)Cc1ccccc1	-6.3	-9.4	-16.7	/	11.4	/	/	/
COC(=O)CCN(C(=O)c1cccc([N+](=O)[O-])c1)c1ccccn1	/	0.4	1.4	4.5	-1.8	3.1	-14.2	i
O=C(CSc1nc(-c2ccccc2)ns1)NCC1CCCO1 (stereo unspecified)	-5.1	3.0	-2.0	5.1	-1.4	1.3	11.6	i
CCOc1ccc(NC(=O)c2ccccc2NS(=O)(=O)c2ccc(F)cc2)c([N+](=O)[O-])c1	/	-5.2	-8.2	40.7	8.6	-0.2	-7.2	i
COc1ccccc1CNC(=O)C(C)n1cccc1C(=O)c1ccccc1 (stereo unspecified)	2.3	-8.0	-0.9	-2.6	-0.4	/	/	i
O=C(NCc1ccccc1)C1=C[C@H](C2CCCCC2)C[C@H](OCc2ccc(CO)cc2)O1	-24.9	-2.2	-6.7	33.6	-55.6	-5.1	-2.1	i
CO/N=C/c1ccc(Sc2ccccc2)c([N+](=O)[O-])c1	-7.3	-0.4	-1.8	-7.4	/	7.0	-3.9	i
O=C(NCCc1c[nH]c2ccccc12)C(=O)NCC(c1cccnc1)N1CCN(c2ccccc2)CC1 (stereo unspecified)	3.5	3.8	-28.3	7.1	/	-4.9	-12.6	i
O=C(NCCCN1CCOCC1)C1(c2ccccc2)CCOCC1	-10.7	-3.1	0.7	-8.5	-17.5	1.8	4.3	i
Cc1ccc(Sc2c(O)c3ccccc3n(C)c2=O)cc1	/	0.1	1.8	/	11.6	-3.4	-5.4	i
CCC(Oc1ccccc1)C(=O)N1CCN(C(=O)C(CC)Oc2ccccc2)CC1 (stereo unspecified)	-17.9	-1.9	-1.4	-13.0	/	2.4	1.4	i
CCCCn1c(CCC)nc([N+](=O)[O-])c1Sc1ccc(Cl)cn1	/	-2.7	-6.0	-2.8	35.1	-1.4	-1.9	i
Nc1cccc2[nH]c(C(F)(F)F)nc12	/	51.2*	44.6*	-1.1	-3.3	19.1	4.9	i
Cc1nn(Cc2ccc(F)cc2)c(C)c1NC(=O)c1cccnc1Cl	-0.4	0.8	-0.8	13.6	0.3	16.4	1.4	i
CC12Cc3ccc4ccccc4c3C=C1C[N+](C)(C)C2 (stereo unspecified)	/	-3.1	-0.6	-3.8	/	-4.8	2.1	i
O=C(Nc1nc2ccc(Cl)cc2s1)[C@@H]1CCCN1C(=O)c1cccs1	/	-8.6	-0.6	56.7	-1.8	0.7	-6.4	i
CC1CCCN(C(=O)CSc2nnc(-c3ccncc3)n2C)C1 (stereo unspecified)	/	-0.8	1.5	-7.0	1.6	-4.9	3.0	i
Cc1ccc([C@@H]2CC(=O)[C@@H]3CN(S(=O)(=O)c4ccc(C)cc4)[C@H](c4ccc(Cl)cc4)C[C@@H]3N2S(=O)(=O)c2ccc(Cl)cc2)cc1	-17.0	-2.3	-2.8	/	9.2	/	/	/
Cn1c(SCC(=O)NC2CCCCC2)nnc1-c1ccc(N)cc1	-5.3	5.6	4.1	-8.0	24.9	1.6	-7.4	i
NS(=O)(=O)c1ccc(NCc2cc(Cl)ccc2OCc2ccccc2F)cc1	5.8	-7.3	-21.3	44.7	?	0.7	1.6	i
Cc1ccc(C(=O)Nc2ccnc(-c3cccnc3)n2)cc1	/	4.8	1.2	2.5	-7.4	6.0	5.4	i
COc1ccc(NC(=O)COC(=O)C2COc3ccccc3O2)cc1OC (stereo unspecified)	11.0	-3.8	2.0	/	-7.6	/	/	/
CC(C)C(NS(=O)(=O)c1c(Cl)cccc1Cl)C(=O)OCC(=O)c1c[nH]c2ccccc12 (stereo unspecified)	/	-5.5	-6.5	3.1	-11.6	7.0	2.3	i

Going on with the list:
SMILES	Yeast UUG start	MT1-MMP act inh	MT1-MMP act inh RFP	CSC inhib	Env fusion inh	eIF4H inh	PABP FP inh	Rce1 inh	others
COC(=O)[C@]1(C)N[C@H](c2ccc(-c3ccc(F)cc3)cc2)[C@@H]2C(=O)N(C)C(=O)[C@@H]21	-5.0	2.9	-1.6	-1.9	11.7	/	/	i
CCOC(=O)N1CCN(C(=O)CSc2ccc(Cl)cc2)CC1	-10.7	0.8	-1.7	-6.5	/	-0.9	-9.9	i
N#Cc1cc(C(=O)c2cc(F)ccc2O)cn(-c2nccs2)c1=O	-1.2	-125.4	5.0	27.8	17.1	?	-5.9	i
Nn1cc(-c2ccccc2)nc1SCC(=O)NCC(F)(F)F	0.8	-1.1	0.5	-6.2	-7.3	3.0	-1.7	/
COc1ccc(C2C(C(C)=O)=C(O)C(=O)N2c2nc3ccccc3s2)cc1OC (stereo unspecified)	/	-10.9	-2.9	2.2	-5.3	-12.3	-17.0	i
CN(C)c1ccc(/C=N/NC(=O)c2ccnn2C)cc1	/	2.4	4.9	-10.7	-21.1	-4.1	-2.0	i
O=C(Nc1ccc2nc3n(c(=O)c2c1)CCCC3)c1ccccc1F	0.4	0.1	0.7	6.7	-1.1	-4.0	0.6	i

Quoted at random: three records from the list.
SMILES	Yeast UUG start	MT1-MMP act inh	MT1-MMP act inh RFP	CSC inhib	Env fusion inh	eIF4H inh	PABP FP inh	Rce1 inh	others
COC(=O)[C@]1(C)N[C@H](c2ccc(-c3ccc(F)cc3)cc2)[C@@H]2C(=O)N(C)C(=O)[C@@H]21	-5.0	2.9	-1.6	-1.9	11.7	/	/	i
Nn1cc(-c2ccccc2)nc1SCC(=O)NCC(F)(F)F	0.8	-1.1	0.5	-6.2	-7.3	3.0	-1.7	/
CN(C)c1ccc(/C=N/NC(=O)c2ccnn2C)cc1	/	2.4	4.9	-10.7	-21.1	-4.1	-2.0	i
